Lassa entry inh: inhibitors of Lassa virus binding or cell entry; Lassa virus pseudotype entry inhibition, cell reporter; control for the full effect not named in the record; Potency, µM (highest dose often 37.9 µM), inactives show top-dose activity change, negative = inhibition, hits mostly inhibitors; 1.2% of 300,000 active; active means well fitted inhibition curve with a large enough effect; inconclusive means small, poorly fitted or top-dose-only effect, or effect the other way; inactive means flat fitted curve, though single readings scatter; tested in HEK293 cells; note: % is set by controls: 0 for no effect and ±100 for the full control effect; nearly all actives have a fitted effect of over 50% in size; luciferase read-out
NS1 function inh: blocks influenza NS1 protein function. Potency, µM (series often up to 46.1 µM), without a hit: at the top dose activity, positive = more growth. 0.4% of 270,000 active. S. cerevisiae slowed by influenza A NS1, growth recovery by OD600; note: actives are rising curves; nearly all actives have a fitted effect of over 50% in size
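A cell-based growth assay was used: compounds that relieve NS1-induced slow growth of budding yeast raise OD600. Assay medium was yeast nitrogen base with ammonium sulphate and -URA supplement, pH 6.0, with 2% galactose.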
SARS PLpro yeast: SARS-CoV PLP inhibition in yeast. S. cerevisiae expressing SARS-CoV PLpro, growth rescue; control for the full effect not named in the record. Potency, µM (titrated, usually from 32.9 µM), for the others: top-dose activity, positive = growth rescue. 0.19% of 330,000 active. AID 485353; note: 0% is about no effect; nearly all actives have a fitted effect of over 55% in size; growth read by luminescence after 48 h
MARV entry inh: Marburg virus entry inhibition. Marburg virus pseudotyped entry inhibition, cell reporter; control for the full effect not named in the record; about a third of the inactives were read at about 46 µM. Potency, µM (series often up to 37.8 µM), for the others: top-dose activity change, negative = inhibition, actives largely listed as inhibitors. AID 540276. 1.8% of 300,000 active; active = well fitted inhibition curve with a large enough effect; inconclusive = small, poorly fitted or top-dose-only effect, or effect the other way; inactive = flat fitted curve, though single readings scatter; tested in HEK293 cells; about a fifth of its hits are not listed in these tables; note: % is set by controls: 0 for no effect and ±100 for the full control effect; luciferase read-out
Cruzain noTriton: inhibitors of Trypanosoma cruzi cruzain without detergent; AID 1476; purified cruzain, Z-FR-AMC fluorescence, no detergent; P25779; Potency, µM, inactives show max response, negative = inhibition, usual class: inhibitors; 2.3% of 200,000 active; active = well fitted curve in the direction sought with a large enough effect; inconclusive = small, poorly fitted or top-dose-only effect, or another doubt; inactive = no such curve, though single readings can be large; an effect the other way counts as inactive or inconclusive;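 note: plate controls were enzyme without inhibitor for no effect and buffer without enzyme for full effect; nearly all actives have a fitted effect of over 40% in size; top concentration of the series not given in the record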
Target sequence (P25779 123-467 limits assumed): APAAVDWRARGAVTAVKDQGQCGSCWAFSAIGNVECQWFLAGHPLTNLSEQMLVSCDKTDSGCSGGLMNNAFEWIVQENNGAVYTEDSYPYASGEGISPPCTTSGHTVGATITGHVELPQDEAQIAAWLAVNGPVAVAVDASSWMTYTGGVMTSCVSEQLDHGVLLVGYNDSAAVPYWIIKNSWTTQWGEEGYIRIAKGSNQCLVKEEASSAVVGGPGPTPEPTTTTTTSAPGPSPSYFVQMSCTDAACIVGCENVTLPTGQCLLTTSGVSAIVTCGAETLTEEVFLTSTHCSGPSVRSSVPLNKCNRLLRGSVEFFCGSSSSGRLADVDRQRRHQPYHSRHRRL
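Detergent-free condition (0.00005% Triton X-100) in acetate buffer pH 5.5 with DTT. 1.5 nM enzyme and compound were pre-mixed 15 min, then 2 uM Z-FR-AMC substrate added; reaction progress from fluorescence change between first and third reads (60 s).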
2A StopGo: lowers the luciferase signal of an FMDV 2A StopGo reporter; 1.2% of 410,000 active; Potency, µM (highest dose often 57.9 µM), for the others: at the top dose signal change, negative = less light; human cells with a luciferase reporter of 2A StopGo recoding; control for the full effect not named in the record; active = well fitted falling curve with a large enough effect; inconclusive = small, poorly fitted or top-dose-only effect; inactive = no such curve, though single readings can be large or run the other way; tested in HEK293T cells; note: % is set by controls: 0 for no effect and ±100 for the full control effect; nearly all actives have a fitted effect of over 45% in size; luciferase light after 4 h
RE007 growth inh: less growth of the S. pombe RE007 Vpr strain; S. pombe RE007 Vpr strain, BacTiter-Glo ATP luminescence, 24 h; control for the full effect not named in the record; 0.21% of 360,000 active; Potency, µM (series often up to 92.2 µM), for inactives: top-dose activity change, negative = less growth; active = well fitted falling curve with a large enough effect; inconclusive = small, poorly fitted or top-dose-only effect; inactive = no such curve, though single readings can be large or run the other way;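 note: % is set by controls: 0 for no effect and ±100 for the full control effect; nearly all actives have a fitted effect of over 50% in size; the assay follows cell death caused by Vpr and the record does not say whether a fall means rescue or toxicity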
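Fission yeast strain RE007, carrying one chromosomally integrated HIV-1 vpr copy, was seeded at OD 0.01 in PMG+AL medium with 23 nL pinned compound. After 24 h at 30 °C and 99% humidity, viability was read by BacTiter-Glo luminescence.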
Cruzain inh Det: inhibitors of Trypanosoma cruzi cruzain with detergent. P25779. purified cruzain, Z-FR-AMC fluorescence, 0.01% Triton. Potency, µM, without a hit: max response, negative = inhibition, actives largely listed as inhibitors. 0.43% of 200,000 active; active = well fitted curve in the direction sought with a large enough effect; inconclusive = small, poorly fitted or top-dose-only effect, or another doubt; inactive = no such curve, though single readings can be large; an effect the other way counts as inactive or inconclusive;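 note: plate controls were neutral wells for no effect and buffer without enzyme for full effect; nearly all actives have a fitted effect of over 40% in size; top concentration of the series not given in the record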
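Cruzain (1.5 nM) preincubated 15 min at RT with compound in 100 mM sodium acetate pH 5.5, 5 mM DTT, 0.01% Triton X-100. Reaction started with 2 uM Z-FR-AMC; AMC fluorescence (ex 360/em 450 nm) change over 60 s gave rate.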
Active calls of the source: *; ? = inconclusive; nt = no result given; ! = not confirmed by another sample; [ ] = another dose, or the depositor's remark. Unless noted, calls come from the whole dose curve; as a rule, active means well fitted rising curve with a large enough effect; inconclusive means small, poorly fitted or top-dose-only effect; inactive means no such curve, though single readings can be large or run the other way. Potency is the fitted concentration of half-maximal effect.

SMILES	Lassa entry inh	NS1 function inh	SARS PLpro yeast	MARV entry inh	Cruzain noTriton	2A StopGo	RE007 growth inh	Cruzain inh Det
O=C(c1cccc(-c2ccco2)c1)N1CCCC(N2CCN(c3ccc(F)cc3)CC2)C1 (stereo not drawn)	?	2%	-6%	-31%	nt	35µM*	8%	nt
O=[N+]([O-])c1ccc(S(=O)(=O)Nc2ccc(S(=O)(=O)N3CCCC3)cc2)cc1	-4%[46.1 µM]	-2%	-2%	-10%[46.1 µM]	nt	20%	5%	nt
O=C1c2sc3nc4c(c(=O)n3c2C(=O)N1c1ccccc1)CCC4	10%	-132%	-2%	5%	-13%	?	-17%	6.6%
Cc1ccc(NC(=O)Cn2c(-c3ccc(F)cc3)cnc2SCC(=O)Nc2c(C)cccc2C)cc1	?	5%	-21%	?	?	-20%	22%	2.8%
CC(=O)Nc1ccc2nc(CN3CCC(CO)(CCc4ccccc4)CC3)ccc2c1	-16%	7%	1%	?	nt	-13%	0%	nt
CC(CN1C(C)CCCC1C)OC(=O)c1ccc(Cl)cc1Cl (stereo not drawn)	0%	nt	0%	-4%[46.1 µM]	nt	1%	1%	nt
O=C(NCCc1ccccc1)c1c[nH]c2ccc(S(=O)(=O)Nc3ccc(F)cc3F)cc2c1=O	0%[46.1 µM]	nt	nt	nt	0%	20%	nt	-0.6%
CCOc1ccccc1C(=O)Nc1ccc(S(=O)(=O)Nc2onc(C)c2C)cc1	2%[46.1 µM]	nt	nt	nt	6%	18%	nt	-4.9%
CN(C)CCCN(C(=O)c1cccs1)c1nc2cc3c(cc2s1)OCO3	nt	nt	-3%	0%[46.1 µM]	nt	47%[activator]	1%	nt
COC(=O)CCN(C(=O)c1ccc([N+](=O)[O-])cc1)c1ccccn1	11%	0%	0%	-1%	nt	-3%	-7%	nt
Cc1ccc(NS(=O)(=O)c2cc(C(=O)N3CCCC3)ccc2C)cc1C	-20%[46.1 µM]	0%	19%	-12%	nt	50%[activator]	-6%	nt
Cc1ccc(NC(=O)c2cc(-c3cccs3)nc3ccccc23)nc1	0%	5%	0%	?	nt	?	-23%	nt
Cc1ccccc1NC(=O)c1cc(S(=O)(=O)N2CCOCC2)ccc1F	5%	8%	-3%	4%	-6%	14%	16%	-3.7%
Cc1nn(C)c(-c2n[nH]c(=S)n2Cc2ccco2)c1Cl	-19%	13%	4%	-3%	6%	-7%	3%	-1.6%
CS(=O)(=O)N(CC(=O)NCc1cccnc1)Cc1ccc(Cl)cc1	11%	-3%	0%	16%	4%	11%	-14%	5.9%
COc1ccc(C(=O)NCCNc2nc3cc(C)c(C)cc3cc2C)cc1	9%[46.1 µM]	?	13%	?	nt	-20%	-8%	nt
COc1ccc(-c2noc(CNC(=O)c3ccc4c(c3)OCO4)n2)cc1OC	-13%	-4%	1%	3%	nt	-7%	-12%	nt
CSc1nnc(C(C)(C)C)c(=O)n1/N=C/c1ccccc1O	nt	-2%	1%	nt	nt	-10%	-1%	nt
O=C(Cc1ccccc1)Nc1nnc2n1CCS2	-20%[46.1 µM]	nt	nt	nt	8%	0%	nt	0.0%
C/C(=N\NC(=O)C1CCCC1)c1ccc(C(C)C)cc1	-27%[46.1 µM]	4%	3%	19%[46.1 µM]	nt	27%	-4%	nt
CCn1cc2nc(SCc3ccccc3Cl)n(CCc3ccccc3)c(=O)c2n1	?	nt	nt	nt	12%	?	nt	-1.4%
COc1cc(CNCCCN2CCOCC2)ccc1OCC(=O)Nc1cccc(C(F)(F)F)c1	?	17%	-7%	?	-8%	4%	11%	4.7%
COc1cccc(NC(=O)COC(=O)c2c(F)cccc2F)c1	15%	-16%	-4%	19%	-7%	0%	nt	-9.9%
CCN1C(=O)c2cccc3c(S(=O)(=O)N4CCC(C)CC4)ccc1c23	0%	nt	-7%	?	nt	-7%	20%	nt
COC(=O)C(Cc1ccccc1)NC(=O)CNS(=O)(=O)c1ccc(Br)cc1 (stereo not drawn)	-4%	nt	1%	-13%[14.2 µM]	nt	4%	33%	nt
Cc1cccc(NC(=O)CCN2C(=O)C3C4CCC(C4)C3C2=O)c1C (stereo not drawn)	5%	-2%	6%	21%	4%	nt	3%	3.1%
CCOC(=O)C1CCN(C(=O)c2cnn(-c3ccc(F)cc3)c2-n2cccc2)CC1	3%[46.1 µM]	nt	nt	nt	12%	-4%	nt	-3.0%
COc1ccc(CN(CCC(c2ccc(F)cc2)C2CCOC(C)(C)C2)C(=O)c2ccco2)cc1 (stereo not drawn)	?	-34%	-15%	7.9µM*!	?	?	8%	-8.4%
Cc1ccc(S(=O)(=O)NCCCC(=O)C=[N+]=[N-])cc1	-17%	6%	1%	?	-12%	6%	-2%	0.3%
Cc1cc(C)nc(N2CCCC(C(=O)NCCc3ccccc3F)C2)n1 (stereo not drawn)	-2%	-4%	-7%	0%	-14%	11%	0%	1.8%
COc1cccc(CN2CCNC(=O)C2CC(=O)NCCc2nc(C)c(C)s2)c1OC (stereo not drawn)	nt	1%	1%	nt	nt	1%	4%	nt
COC(=O)c1cn(C(C)C(=O)NCc2ccco2)c2ccccc12 (stereo not drawn)	7%	-4%	-2%	4%	-2%	18%	18%	7.9%
Cc1cc(=O)[nH]c(SCCCOc2ccc3c(c2)CCC3)n1	19%	-8%	-12%	?	-14%	-13%	8%	-11%
CCn1cc(CN2CCCC(CNS(=O)(=O)c3ccc(OC)cc3)C2)cn1 (stereo not drawn)	0%	-1%	-7%	10%	nt	-13%	-9%	nt
COc1ccc(NC(=O)c2cccnc2)c([N+](=O)[O-])c1	?	nt	-1%	-21%[46.1 µM]	nt	5%	-5%	nt
O=C(CNC1CCCCC1)NCC1(c2ccccc2)CCCC1	?	-1%	1%	?	nt	-27%	-9%	nt
Cc1cc(C(=O)CSc2cccc[n+]2[O-])c(C)n1-c1ccc(OC(F)F)cc1	nt	-156%	-3%	nt	nt	5%	-1%	nt
CN(C)c1cc[n+](CC(=O)Nc2cccc([N+](=O)[O-])c2)cc1	nt	?	-1%	nt	nt	12%	?	nt
CC(C)Nc1ccc(C(CC(N)=O)NC(=O)Cc2ccc(Cl)cc2)cc1[N+](=O)[O-] (stereo not drawn)	nt	-2%	2%	nt	nt	-19%	-8%	nt
Cc1ccc(OCCOCCn2ccnc2)c(Br)c1	21%	-13%	6%	9%	-5%	-20%	9%	5.7%
O=c1oc2cc(Oc3ccc(C(F)(F)F)cc3[N+](=O)[O-])ccc2c2c1CCC2	22%	2%	?	3%	7%	?	7%	-7.9%
Cc1cccc(CNc2ccc(C(CC(N)=O)NC(=O)Cc3cccc4ccccc34)cc2[N+](=O)[O-])c1 (stereo not drawn)	nt	12%	2%	nt	nt	-24%	4%	nt
CN(C)c1ccc(-c2nn3c(-c4cccnc4)nnc3s2)cc1	-6%	-10%	-1%	0%	6%	7%	8%	0.2%
Cc1cc(C)c2nc(N3CCC(C(=O)N4CCN(c5ncccn5)CC4)CC3)sc2c1	-1%	-14%	-1%	-3%	?	nt	-12%	6.1%
Cc1noc(C)c1COc1ccc(C(=O)OCC(=O)NCc2ccccc2Cl)cc1	-28%	-3%	16%	18%	10%	-1%	16%	-5.9%
CCc1ccc(C2=NN(CCC(=O)NC3CC3)C(=O)CC2)cc1	-9%	-5%	2%	10%	10%	nt	nt	-6.0%
COc1ccccc1CN1CCCC(N2CCN(c3ccc(F)cc3)CC2)C1 (stereo not drawn)	?	12%	1%	?	nt	-9%	1%	nt
Cn1c(Cc2cccc3ccccc23)nnc1SCC(=O)N1CCN(c2ccccc2)CC1	?	4%	-11%	?	?	?	-15%	8.3%
O=S(=O)(NCc1ccccc1)c1ccc(Br)c2nsnc12	11%	-4%	1%	2%[46.1 µM]	nt	13%	-4%	nt
CC1=C(C(=O)N2CCCC(N3CCN(c4ccccc4F)CC3)C2)OCCO1 (stereo not drawn)	-11%	14%	6%	-5%	nt	3%	2%	nt
Further structures follow:
SMILES	Lassa entry inh	NS1 function inh	SARS PLpro yeast	MARV entry inh	Cruzain noTriton	2A StopGo	RE007 growth inh	Cruzain inh Det
CC(C)Cn1c(=O)c2c(nc3n2CCCN3Cc2ccccc2)n(C)c1=O	-44%	-7%	1%	?	nt	?	25%	nt
Cc1ccc(S(=O)(=O)N2CCCC(C(=O)N3CCC4(CC3)OCCO4)C2)cc1 (stereo not drawn)	-6%	-15%	-5%	-7%	-2%	?	-12%	1.7%
COc1ccc(NC(=O)c2ccc(S(=O)(=O)N3CCOCC3)cc2)c(OC)c1	0%	-13%	7%	-16%	2%	-25%	22%	3.8%
COc1cc(C(CN)CC(=O)O)ccc1O (stereo not drawn)	nt	3%	0%	nt	nt	9%	4%	nt
CCOC(=O)c1nnc2c(Br)c(-c3ccccc3)nn2c1C	-8%	11%	5%	-3%	-7%	-24%	-14%	-5.1%
COc1cc(C(=O)OCC2CC(c3ccccc3)=NO2)cc(OC)c1OC (stereo not drawn)	?	nt	-1%	5%[46.1 µM]	nt	-2%	0%	nt
COc1ccc(-n2c(C)c([N+](=O)[O-])c3ccc(O)c(CN4CCCCC4)c32)cc1	10%	0%	-4%	-1%	-15%	?	-14%	-8.2%
COC(=O)[C@@H](NCc1cccc(CN([C@H](C(=O)OC)C(C)C)S(C)(=O)=O)c1)C(C)C	nt	1%	1%	nt	nt	-23%	-15%	nt
Cc1cc(C)c2nc(C(F)(F)F)nc(NCCCN3CCOCC3)c2c1	?	-4%	-19%	?	7%	?	-8%	-3.3%
Clc1ccccc1-c1nc(N/N=C/c2cccnc2)c2ccccc2n1	1%	?	-17%	?	22%	?	-6%	1.5%
COc1ccc(N2CCN(C(=O)CCCCCn3c(=O)[nH]c4ccsc4c3=O)CC2)cc1	-2%	nt	0%	-11%[46.1 µM]	nt	?	-7%	nt
O=C(CN1CCCC1)OCCCc1ccccc1	8%	-5%	2%	3%	-1%	-1%	-21%	-3.2%
COc1cccc(CNC(=O)c2cc3c(s2)-c2c(C)cccc2OC3)c1	nt	nt	nt	?	?	-5%	nt	-6.5%
O=C(O)c1cc(N2CCOCC2)nc2ccccc12	nt	-1%	3%	nt	nt	1%	-3%	nt
